CBX7 inh: blocks human CBX7 binding to H3K27me3 peptide; O95931; AlphaScreen His6-CBX7 / biotin-H3K27me3 peptide binding; hits give low values; normalised signal (fraction of DMSO) (test concentration not listed); 1.1% of 66,000 active; in the data active = normalised signal below about 0.5;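 note: 100 nL library stock added to about 20 µL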
Target sequence (O95931 whole entry, looked up): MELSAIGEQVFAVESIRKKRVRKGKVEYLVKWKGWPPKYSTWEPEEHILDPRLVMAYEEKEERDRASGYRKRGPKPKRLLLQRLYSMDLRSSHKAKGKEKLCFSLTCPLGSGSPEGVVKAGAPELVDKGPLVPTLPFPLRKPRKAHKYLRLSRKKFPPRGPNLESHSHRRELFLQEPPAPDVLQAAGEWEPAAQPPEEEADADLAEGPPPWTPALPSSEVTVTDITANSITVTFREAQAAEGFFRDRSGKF
CBX7 inh z-score: further read-out of CBX7 inh, marked with its call; z-score; measured here: z-score of CBX7 signal; some inactives read as strong as hits; reference of the scale not given here;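 same signal on another scale; lower means less binding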
Starred values were filed as active, the others as inactive. Not all compounds are listed. The share of hits here may be higher or lower than overall.

item	molecule	CBX7 inh z-score	CBX7 inh
1	Cc1ccc2c(c1)NC(=O)C(CC(=O)Nc1ccc(C(C)C)cc1)O2 (stereo not drawn)	2.57	1.06
2	Cc1ccc(S(=O)(=O)C2(C(=O)N3CCN(C(c4ccccc4)c4ccc(Cl)cc4)CC3)CC2)cc1 (stereo not drawn)	-3.1	0.843
3	CC1=Nc2ccc(C)cc2N(C)C(=O)C1	1.28	1.06
4	CCOc1ccc2c(c1)c(=O)c(S(=O)(=O)c1ccccc1)cn2CC(=O)Nc1ccc(C)cc1C	-2.37	0.855
5	COC(=O)c1ccc2nc(C)cc(Nc3cccc(Cl)c3C)c2c1	-1.03	0.91
6	CC(C)c1nc(N2CCOCC2)c(C#N)c2c1CCCC2	1.6	1.05
7	CCc1nc2ccccc2n1CC(O)COc1cc(OC)cc(OC)c1 (stereo not drawn)	-2.38	0.815
8	Cc1ccc2nc(-c3ccc(N4C(=O)CC(N5CCCN(C)CC5)C4=O)cc3)sc2c1 (stereo not drawn)	1.15	1.09
9	CCCCOc1ccccc1C1CC(=O)Nc2cc3c(cc21)OCO3 (stereo not drawn)	-1.11	0.972
10	Cc1ccc2c(c1)NC(=O)C(CC(=O)NCc1ccccc1Cl)O2 (stereo not drawn)	0.303	1.01
11	CCOC(=O)C1CCN(C(=O)c2sc3nc(-c4ccccc4)cn3c2C)CC1	0.798	1.02
12	COCCCNC(=O)c1cc(Nc2cc(C)ccc2C)nc2ccccc12	-0.33	0.979
13	O=C(NC1CCCCCC1)C1C2C=CC3(CN(Cc4cccnc4)C(=O)C13)O2 (stereo not drawn)	0.0502	1.05
14	Cc1ccc(C)c(N2CCN(c3nc4ccccc4nc3-n3nc(C)cc3C)CC2)c1	10.7	1.3
15	CCc1cccc(NC(=O)c2cnn(-c3ccccc3)c2C2CCN(C(=O)OC(C)(C)C)CC2)c1	-1.11	0.956
16	CCN(CC)CCCNC(=O)c1ccc2nc(N3CCOCC3)sc2c1	-1.15	0.877
17	COc1ccccc1Nc1nc(-c2ccc(S(=O)(=O)N3CCCCC3)cc2)cs1	-0.828	0.925
18	Cc1ccc(Cl)cc1NC1c2ccccc2C(=O)N1c1cccnc1 (stereo not drawn)	-1.18	0.912
19	CCOC(=O)C1CCN(S(=O)(=O)c2ccc(-c3nc4ccccc4s3)s2)CC1	2.39	1.08
20	COCCCNC(=O)CSc1nc(-c2ccc(F)cc2)[nH]c1-c1ccc(C)cc1	-0.837	0.951
21	Cc1ccc(OCc2nc(-c3ccccc3)no2)c(Br)c1	20.7	1.46
22	CC(=O)OCc1cnc(C)c2c1COC(C)O2 (stereo not drawn)	-0.555	0.969
23	CCCCN1C(=O)C(O)(CC(=O)c2ccc(C(C)C)cc2)c2cc(Br)ccc21 (stereo not drawn)	-0.386	0.657
24	CCOc1ccc(-c2nc(C#N)c(N3CCN(C)CC3)o2)cc1	2.7	1.25
25	O=C(CN1C(=O)COc2ccc(S(=O)(=O)N3CCOCC3)cc21)N1CCOCC1	-0.841	0.974

Reprinted from the part before: two compounds, followed by the next part.
item	molecule	CBX7 inh z-score	CBX7 inh
24	CCOc1ccc(-c2nc(C#N)c(N3CCN(C)CC3)o2)cc1	2.7	1.25
25	O=C(CN1C(=O)COc2ccc(S(=O)(=O)N3CCOCC3)cc21)N1CCOCC1	-0.841	0.974
26	COc1ccc(-c2cc(C(=O)NCc3ccccc3)no2)cc1OC	0.854	1.07
27	CCOc1cc2c(cc1OCC)C(c1ccc3ccccc3c1)NCC2 (stereo not drawn)	-0.516	0.969
28	Cc1ccc(C(=O)CN2C(=C(O)c3ccccc3)C(=O)c3ccccc3S2(=O)=O)c(C)c1	-0.534	0.743
29	C=CCNc1c2c(nc3ccccc13)CCC2	0.177	1.01
30	Cc1[nH]c2ccccc2c1CCNC(=O)c1ccccc1Br	-5.35	0.705
31	CCOC(=O)c1cc(-c2ccccc2)n(CCC(=O)NCCc2ccc(OC)c(OC)c2)c1C	-1.63	0.87
32	COc1ccc(C(C(=O)NC2CCCCC2)N2CCCC2)cc1 (stereo not drawn)	-0.965	0.961
33	CCCC1CCC(c2ccc(-c3noc(-c4cccnc4)n3)cc2)CC1 (stereo not drawn)	1.49	1.13
34	O=C(COc1ccc(Cl)cc1)Nc1nc2ccccc2s1	1.65	1.05
35	Nc1nc(-c2cccnc2)nc2c1c(=O)oc1ccccc12	-0.663	0.973
36	CC(=O)N1c2ccc(S(=O)(=O)N3CCN(Cc4ccccc4)CC3)cc2CC1C (stereo not drawn)	1.01	1.25
37	COc1ccc(Cc2noc(-c3cc(-c4ccncc4)nc4ccccc34)n2)cc1OC	-6.64	0.573
38	COc1ccc(NC(=O)c2c(NCc3cccc(F)c3)sc3c2CCC3)cc1	-0.21	0.98
39	O=C(Nc1cccnc1)C1CCCN1S(=O)(=O)c1cccc2cccnc12 (stereo not drawn)	0.481	1.06
40	Cc1ccc2c(c1)Oc1cc([N+](=O)[O-])cc(Oc3ccc(Cl)cc3)c1C(=O)N2	-14.5*	0.2*
41	O=C(Cn1ncc2ccsc2c1=O)N1CCN(c2cccc(C(F)(F)F)c2)CC1	-0.864	0.978
42	Cc1cccc(Cc2cnc(NC(=O)COc3ccc(Br)cc3)s2)c1	0.368	1.01
43	O=C(Nc1cccc(Br)c1)c1ccn(C(=O)c2ccc(Cl)cc2)n1	0.012	1.01
44	Cc1cc2c(cc1C)C(c1ccc(Cl)cc1Cl)CC(=O)N2 (stereo not drawn)	-0.117	0.942
45	CCc1ccc(C(=O)CC2(O)C(=O)Nc3ccc(CC)cc32)cc1 (stereo not drawn)	0.747	1.05
46	CCN1CCN(CCCNC(=O)c2cn(C3CCCC3)c(=O)c3c2c2ccccc2n3C)CC1	0.384	1.01
47	COc1cc2c(cc1OC)-c1nnc(-c3cccnc3)n1C(C)(C)C2	0.268	1.01
48	COc1ccc(C)cc1NS(=O)(=O)c1cc(Br)cc2c1N(C(=O)C1CC1)CC2	-3.56	0.925
49	COc1cccc(NC(=O)Cn2c(-c3cncs3)nc3ccccc32)c1	-0.00942	0.991
50	O=C1CCc2cc(S(=O)(=O)N3CCCC3C(=O)NC3CCCCCC3)ccc2N1 (stereo not drawn)	-0.457	0.975
51	Cc1nnc(NC(=O)c2ccccc2Cl)s1	0.497	1.05
52	CN1C(=O)c2ccccc2Sc2ccc(C(=O)NCCN3CCOCC3)cc21	0.328	1.02
53	O=C(NCc1cccs1)c1cc2c(s1)-c1ccccc1OC2	2.73	1.1
54	COc1ccc(C)cc1NC(=O)c1oc2ccc(S(=O)(=O)N3CC(C)CC(C)C3)cc2c1C (stereo not drawn)	-0.712	0.982
55	O=S(=O)(CCc1nc2ccccc2o1)c1ccc(Br)cc1	0.805	1.02
56	Fc1ccccc1-c1nc(NCc2ccccn2)c2ccccc2n1	-1.26	0.873
57	Cc1ccc(OCc2nc(C#N)c(N3CCCC3)o2)cc1	-10.6*	0.417*
58	CC(=O)N1CCc2cc(S(=O)(=O)N3CCOCC3)ccc21	-0.0993	0.975
59	COc1ccc(-c2cc3nc(C)c(CCC(=O)NCCN4CCCC4)c(C)n3n2)c(OC)c1	8.1	1.74
60	COc1cccc(CNC(=O)c2c[nH]n3c(=O)c(Cc4ccccc4F)c(C)nc23)c1	-0.402	0.99
61	CCc1ccc2oc(-c3cccc(NC(=O)c4ccc(OC)cc4)c3)nc2c1	2.01	1.19
62	Cc1ccc(-n2c(Cc3cccn3C)nnc2SCC(N)=O)cc1	0.611	1.03
63	COc1ccc(C2=NS(=O)(=O)c3ccccc3N2)cc1OC	1.28	1.17
64	CCCSc1oc(-c2ccccc2)nc1S(=O)(=O)c1ccccc1	-0.0987	0.986
65	O=C(NCc1ccc2c(c1)OCO2)c1ccc(Cn2c(=O)[nH]c3ccsc3c2=O)cc1	-1.15	0.949
66	CCOC(=O)N1CCC(NC(=O)C2=CCN(S(=O)(=O)c3ccc(F)cc3)CC2)CC1	-0.153	0.992
67	Cc1ccc(NS(=O)(=O)c2ccc3nc(-c4ccccc4)[nH]c3c2)c(C)c1	-0.123	0.907
68	COc1ccc(-c2nc(CN3CCC(C(=O)N4CCOCC4)CC3)c(C)o2)cc1OC	-1.17	0.97
69	c1ccc(-c2cc3c(N4CCc5ccccc5C4)ncnc3s2)cc1	0.11	1
70	CCCNC(=O)c1nn2c(C(F)(F)F)cc(-c3cccs3)nc2c1Br	3.66	1.09
71	Cc1ccc(-n2c(C)nc3c(cnn3-c3ccc(C)c(C)c3)c2=O)cc1C	-1.14	0.911
72	CC1CCCCN1c1nc2nonc2nc1N1CCCCC1C (stereo not drawn)	-0.767	0.971
73	O=C(CCc1nc2ccccc2[nH]1)Nc1ccccc1	1.53	1.13
74	CCOC(=O)N1CCN(c2nc(-c3ccccc3Cl)c3cc(Br)ccc3n2)CC1	6.03	1.61
75	COc1ccc(-c2nn(C)c3sc(C(=O)NCCCN(C)Cc4ccccc4)cc23)cc1OC	-0.298	0.977

Four of the compounds above, as labelled records:
#61 CCc1ccc2oc(-c3cccc(NC(=O)c4ccc(OC)cc4)c3)nc2c1
  CBX7 inh z-score = 2.01
  CBX7 inh = 1.19

#62 Cc1ccc(-n2c(Cc3cccn3C)nnc2SCC(N)=O)cc1
  CBX7 inh z-score = 0.611
  CBX7 inh = 1.03

#63 COc1ccc(C2=NS(=O)(=O)c3ccccc3N2)cc1OC
  CBX7 inh z-score = 1.28
  CBX7 inh = 1.17

#64 CCCSc1oc(-c2ccccc2)nc1S(=O)(=O)c1ccccc1
  CBX7 inh z-score = -0.0987
  CBX7 inh = 0.986

(further entries)
item	molecule	CBX7 inh z-score	CBX7 inh
76	CCOC(=O)c1cnc2c(OC)cccc2c1Nc1ccc(OC)c(OC)c1	-2.51	0.916
77	Cc1cc(Cl)ccc1Oc1cc(C(F)(F)F)ccc1NC(=O)c1cccnc1	0.985	1.04
78	COc1ccc(N2CCN(C3CC(=O)N(c4cccc(Cl)c4)C3=O)CC2)cc1 (stereo not drawn)	1.54	1.06
79	CCc1cccc(NC(=O)CCNC(=O)Cn2ccc3ccccc3c2=O)c1	1.89	1.05
80	CCOc1ccc(C2CC(=O)Nc3cc(OCC)c(OCC)cc32)cc1 (stereo not drawn)	-1.48	0.775
81	CCCC(=O)NCCc1nc2ccccc2n1Cc1ccccc1	0.503	1.06
82	CCOc1cccc(C(=O)Nc2c(C(=O)c3ccc(Br)cc3)oc3ccccc23)c1	0.195	1.06
83	O=C1CN(C(=O)C2CCCC2)C(c2ccc(F)cc2)c2cc(F)ccc2N1 (stereo not drawn)	0.89	1.04
84	CCCCNC(=O)c1c[nH]c2ccc(S(=O)(=O)Nc3ccc(CC)cc3)cc2c1=O	-0.729	0.942
85	Cc1cc(N2CCCCC2)nc2ccc(NC(=O)c3c(F)cccc3F)cc12	-4.34	0.761
86	O=C(NC1(c2ccccc2)CC1)N1CCN(c2ccccc2)CC1	0.366	1.02
87	Cc1cccc(-c2noc(CN(C(=O)c3cccc(Br)c3)C(C)C)n2)c1	-0.688	0.931
88	CCOC(=O)CNC(=O)Cn1cnc2c(nnn2-c2ccc(OC)cc2)c1=O	-1.33	0.931
89	COc1ccc(C(=O)NCC(c2cccnc2)N(C)C)cc1 (stereo not drawn)	-0.347	0.958
90	CC(=O)N1CCc2cc(S(=O)(=O)NC(CC(C)C)C(=O)N3CC=C(c4ccccc4)CC3)ccc21 (stereo not drawn)	-1.56	0.919
91	COc1ccc(C2C(C(=O)Nc3ccc(C)c(F)c3)c3cc(OC)c(OC)cc3C(=O)N2C)cc1 (stereo not drawn)	-0.502	0.95
92	O=C(NCc1ccccc1)c1cc(-c2ccccc2)nc2ccccc12	0.0508	1.02
93	Cc1cc(C)n2nc(CC(=O)NCc3ccc(F)cc3)nc2n1	1.04	1.03
94	COc1ccc(-c2nc3ccc(C(=O)O)cc3nc2-c2ccc(OC)c(OC)c2)cc1OC	0.923	1.14
95	Cc1ccccc1Nc1nc(-c2ccc(I)cc2)cs1	-0.331	0.979
96	CC(C(=O)c1ccccc1)C1(O)C(=O)N(CC(N)=O)c2ccccc21 (stereo not drawn)	0.0776	1.07
97	CCCc1cc(-c2[nH]ncc2-c2ccc3c(c2)OCCO3)c(O)cc1OC	-15.1*	0.292*
98	CC(C)Oc1ccc(C(=O)Nc2c3c(nn2-c2ccc(F)cc2)CS(=O)(=O)C3)cc1	0.58	1.05
99	O=C(Nc1ccc(Oc2ccccc2)cc1)C1CC(=O)N(c2ccccc2Cl)C1 (stereo not drawn)	0.636	1.02
100	Cc1ccn2c(NC(=O)Cc3ccccc3)c(-c3ccc(F)cc3)nc2c1	-0.0147	0.992
101	CCCCOc1ccccc1NC(=O)Nc1ccc(Br)cc1	0.173	1.02
102	CC(=O)NCCc1nc2ccccc2n1CCOc1ccccc1C	0.703	1.02
103	CCC(C)NC(=O)c1ccc2c(c1)N(Cc1ccccc1)C(=O)c1ccccc1S2=O (stereo not drawn)	0.0362	1
104	Cc1cccc(NC(=O)Cn2cc3c(n2)CCCC3)c1C	1.97	1.06
105	COc1ccc(CNC(=O)c2cc3sccc3n2Cc2ccc(C)cc2)cc1	-1.81	0.934
106	CN1CCN(c2nc(-c3ccccc3)nc3ccccc23)CC1	0.0561	1

Assay outcomes deposited in PubChem by several laboratories.
